Source: PubChem (Broad Institute)
T cruzi inh = T. cruzi replication inhibition; inhibition, % (concentration not given with the values); hit rate 1.4% among 300,000; T. cruzi beta-gal in NIH3T3, luminescence, 90 h;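 active = mean inhibition across valid replicates above about 55%, limit read from the data; inconclusive = mean below that limit but half or more replicates reach it; inactive = mean below it, under half of replicates reach it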;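 note: signal also drops with host cell toxicity which is not excluded here; 0% = plate median of DMSO wells and 100% = zero luminescence signal; higher percent means less beta-gal luminescence so fewer parasites; stock transfer was 50 nL into about 50 µL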
Calb FLC = affects C. albicans growth with fluconazole | AID 1979 | growth inhibition, % (test concentration not listed) | hit rate 0.57% among 300,000 | C. albicans CaCi-2 (fluconazole-resistant clinical isolate) + fluconazole, Alamar Blue growth, 48 h;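 active = most replicates above 75%; inconclusive = exactly half above 75%; inactive = most below 75%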;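 note: all wells also contain fluconazole at 8 µg/ml as a sub-toxic cotreatment; 0% = median of DMSO wells and 100% = median of geldanamycin control wells; wells of about 8 µL received 7.5 nL stock; the first replicate is given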
MLL AF4-AF9 inh = blocks AF4 peptide binding to human AF9; AlphaScreen, biotin-AF4 peptide binding to FLAG-AF9; inhibition, % at 10 µM; hit rate 0.47% among 350,000;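 active = every replicate reaching a set inhibition limit, whatever the replicate mean, cut at about 25% in these data; inconclusive = mean inhibition reaches that limit but some replicates miss it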;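 note: 0% = plate neutral control median and 100% = total signal loss; the record names both 10 and 1 µM as test concentration; the first replicate is given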
Target sequence (P42568 whole entry, looked up): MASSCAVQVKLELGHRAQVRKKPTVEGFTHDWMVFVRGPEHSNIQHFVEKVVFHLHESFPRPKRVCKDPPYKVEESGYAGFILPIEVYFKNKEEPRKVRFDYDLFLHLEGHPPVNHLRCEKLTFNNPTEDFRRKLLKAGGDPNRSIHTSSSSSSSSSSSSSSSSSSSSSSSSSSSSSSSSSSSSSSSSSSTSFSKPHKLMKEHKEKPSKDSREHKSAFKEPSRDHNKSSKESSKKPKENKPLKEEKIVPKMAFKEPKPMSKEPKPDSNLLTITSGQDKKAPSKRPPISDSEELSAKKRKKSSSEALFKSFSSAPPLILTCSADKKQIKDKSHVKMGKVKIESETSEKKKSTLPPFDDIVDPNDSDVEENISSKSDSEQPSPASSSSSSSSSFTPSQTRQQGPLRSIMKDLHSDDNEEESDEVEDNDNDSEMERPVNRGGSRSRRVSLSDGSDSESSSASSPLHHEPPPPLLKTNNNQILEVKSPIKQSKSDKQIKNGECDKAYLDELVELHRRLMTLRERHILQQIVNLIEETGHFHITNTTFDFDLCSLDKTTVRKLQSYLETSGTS
ALR inh = blocks human ALR sulfhydryl oxidase activity | P55789 | purified ALR, DTT oxidation, H2O2 HRP-luminol luminescence | inhibition, % (concentration not given with the values) | hit rate 3.8% among 290,000 | AID 485317;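 active = mean and each replicate at 75% or more; inconclusive = only one of the two met; inactive = neither met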;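 note: stock transfer was 7.5 nL into about 7.5 µL; 0% = neutral wells and 100% = wells with inactivated enzyme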
Target sequence (P55789 whole entry, looked up): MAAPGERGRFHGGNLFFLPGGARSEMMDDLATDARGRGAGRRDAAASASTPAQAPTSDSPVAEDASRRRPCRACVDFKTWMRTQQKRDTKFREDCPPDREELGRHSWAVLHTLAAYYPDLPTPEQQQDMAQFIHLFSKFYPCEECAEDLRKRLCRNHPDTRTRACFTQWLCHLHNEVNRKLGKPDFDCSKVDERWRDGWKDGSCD
Beta cell apopt = beta cell apoptosis inhibition; INS-1E cytokine-induced death, ATP luminescence, 48 h; percent of positive-control rescue, neutral wells zero; protection from apoptosis, % (concentration not given with the values); hit rate 0.8% among 300,000; AID 435005;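 active = all replicates at 75% or more, or half of them and the mean; inconclusive = half reach 75% but not the mean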;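 note: 0% = cytokine-treated negative control wells and 100% = positive control rescue; higher means more ATP so stronger rescue from cytokine killing; wells of about 40 µL received 100 nL stock; the first replicate is given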
rRNA inh HTS = selective bacterial rRNA inhibition in E. coli. hit rate 1.6% among 350,000. GFP signal change (wild-type ribosome), % (no concentration beside the values). E. coli WT GFP vs humanized-ribosome RFP mutants, fluorescence, 24 h; active compounds read low; DMSO median 0, no signal -100;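 active = significant combined selectivity score with lowered wild-type GFP, culture density cut under 30%, mutant RFP and density less affected; inactive = any of these conditions unmet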; note: one replicate is shown; some compounds called inactive have numbers as strong as hits
RanGTP-Impb inh = disruptors of Ran-importin-beta complex formation – biochemical, FRET, CFP-Ran, YFP-importin-beta, homogeneous, primary screen. cell-free CFP-Ran/YFP-importin-beta FRET ratio. inhibition, % (no concentration beside the values). hit rate 1.1% among 300,000;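 active = most replicates above 15%; inconclusive = exactly half above 15%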;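 note: 0% = DMSO wells and 100% = Ran loaded with GDP instead of GTP; wells of about 40 µL received 100 nL stock; the first replicate is given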
FGF22 binding = FGF22 (human) thermal shift binding; hit rate 1.5% among 340,000; Q9HCT0; recombinant FGF22 thermal shift, SYPRO orange fluorescence; percent of sucrose octasulfate shift, DMSO zero; calls only at 9.99 µM;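 active = melting point raised past a set limit in the mean and every replicate; inconclusive = no clear call; three in four hits are not shown here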
Target sequence (Q9HCT0 whole entry, looked up): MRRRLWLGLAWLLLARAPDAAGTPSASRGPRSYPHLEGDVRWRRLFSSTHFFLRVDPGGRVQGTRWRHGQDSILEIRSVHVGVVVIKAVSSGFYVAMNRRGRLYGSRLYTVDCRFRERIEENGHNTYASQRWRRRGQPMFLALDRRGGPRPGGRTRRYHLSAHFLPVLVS
rRNA inh HTS OD600 = recorded beside rRNA inh HTS, whose call it bears; OD600 change, %; measured here: OD600 growth;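 optical density of the mix in the first replicate; 0 = DMSO median and -100 = no signal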
rRNA inh HTS RFP = further read-out of rRNA inh HTS, marked with its call; RFP signal change, %; measured here: RFP humanized mutant strains;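 first replicate; 0 = DMSO median and -100 = no signal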
An asterisk follows results filed as active; i = inactive; ? = inconclusive; · = not tested or not shown. An excerpt; count on the stated rates, not on these rows.

SMILES	T cruzi inh	Calb FLC	MLL AF4-AF9 inh	ALR inh	Beta cell apopt	rRNA inh HTS	rRNA inh HTS OD600	rRNA inh HTS RFP	RanGTP-Impb inh	FGF22 binding
CC1Sc2ccc(C(=O)Nc3ncccc3O)cc2NC1=O (stereo not drawn)	-5	-3	1.4	25	-1	4	7	0.8	0.8	i
COc1cccc2cc(C(=O)OC(C)C(=O)c3ccc(C)cc3)c(=O)oc12 (stereo not drawn)	-17	2	-1.8	-9	-5	12	9	2.6	1.6	i
COc1ccc(N2CCN(C(=O)c3oc4ccccc4c3NC(=O)Cc3ccc(OC)c(OC)c3)CC2)cc1	1	6	14	1	1	2	8	-2.7	-1.9	i
Cc1[nH]c(=O)c(C#N)c(C)c1Br	-11	7	-3.1	-5	·	4	7	3.4	4.4	i
CCCN1CCC(=O)N([C@H](CSc2ccc(C)cc2)c2ccccc2)CC1	13	-8	5.1	2	0	-18	-20	-0.7	3.0	i
CC(=O)c1ccc(OCC(O)CN2CCc3ccccc3C2)cc1 (stereo not drawn)	2	-4	-0.3	-12	-4	5	10	2.8	?	i
C=CCn1c(SCC(=O)Nc2nnc(CC)s2)nnc1-c1cccnc1	-1	3	·	-7	-2	·	·	·	0.2	·
CCn1cc(C(=O)OCC(=O)Nc2ccc(S(=O)(=O)N3CCCC3)cc2)c(=O)c2ccc(C)nc21	-2	3	·	0	-4	·	·	·	-0.1	·
Nc1nc(SCc2ccc(Br)cc2)n[nH]1	-4	3	-2.1	3	-4	1	7	1.7	3.6	i
Cc1ccc(CSCCNC(=O)c2cccc([N+](=O)[O-])c2)cc1	5	2	11	-14	-2	-18	-11	-5.0	4.9	i
Cc1cc(C(=O)OCC(=O)N2CC(=O)Nc3ccccc32)c(C)n1-c1ccccc1	10	-8	·	0	-2	·	·	·	4.8	·
Cc1[nH]c2ccccc2c1C(=O)COC(=O)C1CC(=O)N(Cc2ccccc2)C1 (stereo not drawn)	-18	-1	·	-20	-6	·	·	·	1.2	·
CCCn1c(=N)n(CC(=O)c2ccc([N+](=O)[O-])cc2)c2ccccc21	29	99*	4.1	-48	16	-8	-3	-4.7	2.7	i
COc1ccc(CCN2C(=O)CC(Cc3ccc(C)cc3)C2=O)cc1OC (stereo not drawn)	4	20	0.5	-9	4	-5	-6	0.2	-1.7	i
CCC(=O)N1CCN(c2ccc(Cl)cc2NC(=O)c2ccc(N3CCCC3)c([N+](=O)[O-])c2)CC1	18	?	·	-3	4	·	·	·	6.2	·
O=C(NCCc1ccccc1)C1CCCN1C(=O)NCc1ccccc1 (stereo not drawn)	2	6	·	0	-1	·	·	·	-0.6	·
Oc1cncc(-c2cccnc2)c1	·	·	-7.3	6	-5	15	14	3.6	·	i
O=c1cc(CN2CCN(c3cccc(C(F)(F)F)c3)CC2)nc2sccn12	13	-4	·	-1	-14	·	·	·	-1.4	i
CCOC(=O)c1c(C)nc2c(c1C)/C(=N/O)CC(C)(C)C2	-4	-12	-3.4	-11	-2	-2	-6	-1.2	-1.6	i
O=C(NCc1ccccc1)c1ccc(F)c(S(=O)(=O)N2CCOCC2)c1	2	-4	·	-6	6	·	·	·	2.9	·
COc1cc([N+](=O)[O-])ccc1NC(=O)Cc1ccc(F)cc1	5	-5	·	-8	-7	·	·	·	-2.1	·
CCCc1nnc(NC(=O)CCS(=O)(=O)c2ccccc2)s1	-12	74	-2.6	-2	-23	8	3	-1.8	4.0	i
COc1ccccc1CN(CC(=O)NCc1ccco1)C(=O)CNS(=O)(=O)c1ccccc1	12	-5	·	-4	·	·	·	·	1.4	·
CC1=NN(c2ccccc2)C(=O)C1N=Nc1ccc(N)cc1 (stereo not drawn)	-6	2	·	69	33	·	·	·	2.0	·
CC12CCC(C(=O)Nc3ncc([N+](=O)[O-])s3)(OC1=O)C2(C)C (stereo not drawn)	?	?	-11	-15	20	15	-7	24	4.8	i
COc1cccc(NS(=O)(=O)c2cc3c(cc2C)NC(=O)CO3)c1	0	-2	2.0	-12	1	-3	-4	1.4	2.2	i
COc1ccc(Nc2oc(COc3ccc(C)cc3)nc2C#N)cc1	32	17	·	-14	1	·	·	·	10	·
CCOC(=O)c1c(C)c(C(=O)NCCCOC(C)C)c(C)n1C	-3	-4	-3.0	-10	-6	0	4	-6.5	?	i
COc1cccc(CC(=O)NC2CCCN(Cc3ccc(Cl)cc3)C2)c1 (stereo not drawn)	38	0	0.8	1	·	-17	-12	-3.2	-0.9	i
COc1ccc2c(Cl)c(C(=O)NCCCn3ccnc3)sc2c1Cl	40	8	·	·	7	·	·	·	1.7	·
Cc1nc(SCC(=O)Nc2ccccc2)c2oc3ccccc3c2n1	6	0	·	9	3	·	·	·	0.0	·
COc1ccc(CCC(=O)NCCOc2ccccc2Cl)cc1	-1	-2	-14	-16	-4	-9	5	8.3	1.7	i
CCCC(=O)NC(=S)NNC(=O)c1ccc([N+](=O)[O-])cc1	-24	76*	·	11	0	·	·	·	6.3	·
Cc1nnsc1C(=O)NNc1c(Cl)cccc1Cl	22	2	0.7	98*	2	-36	-44	-3.5	-2.3	i
O=C(c1ccc2c(=O)n(Cc3ccccc3)c(=S)[nH]c2c1)N1CCOCC1	3	1	-1.0	38	4	-2	2	-1.9	1.4	i
CN(C(=O)c1cc2n(n1)C(C(F)(F)F)CC(c1ccco1)N2)c1ccc(OC(F)(F)F)cc1 (stereo not drawn)	5	-3	·	1	·	·	·	·	?	·
O=C(OC(C(=O)NCC1CCCO1)c1ccc(F)cc1)c1ccco1 (stereo not drawn)	2	2	·	1	-5	·	·	·	4.8	·
CCOc1ccc2nc(SCC(=O)NNC(=O)c3ccco3)c(C)cc2c1	-2	-10	-12	-1	4	5	6	-1.7	-7.2	i
CC(OC(=O)C1=NNC(=O)CC1)C(=O)Nc1ncc(Cl)cc1Cl (stereo not drawn)	-9	-4	-0.2	-11	6	17	7	1.4	-1.5	i
O=C(NC(Cc1ccccc1)C(=O)O)/C(=C/c1ccccc1)NC(=O)c1ccco1 (stereo not drawn)	-17	0	-0.7	1	-2	2	2	-0.6	3.0	i
CC(Sc1nn(-c2ccccc2)c(=S)s1)C(=O)NCC1CCCO1 (stereo not drawn)	·	·	1.4	67	-10	8	5	2.6	·	i
CNC(=O)c1ccc(N(Cc2ccccc2)S(C)(=O)=O)cc1	-3	-2	·	-3	-2	·	·	·	-5.0	·
Cc1ccc(C(=O)OCC(=O)Nc2c(Cl)cc(S(N)(=O)=O)cc2Cl)o1	-2	-5	4.4	-6	-4	5	9	0.9	6.8	i
CC(C)CC(C(=O)Nc1ccccc1)N1C(=O)C2C3C=CC(C3)C2C1=O (stereo not drawn)	-6	12	-4.4	·	4	-4	4	3.3	-0.1	i
CN(C)S(=O)(=O)c1cccc(NC(=S)N/N=C/c2ccc(O)c(O)c2O)c1	29	77*	2.2	·	·	25	4	13	3.8	i
COc1ccc(OC)c(N(CC(=O)NC2CC2)S(=O)(=O)c2ccc(C)cc2)c1	-3	0	·	11	-3	·	·	·	4.4	·
C=CCN1C(=O)c2ccc(C(=O)N(C)Cc3ccc(C)o3)cc2C1=O	-17	15	2.4	0	-1	7	12	3.2	·	i
O=C(CCC1CCCN(C(=O)c2cccs2)C1)N1CCN(c2ccccn2)CC1 (stereo not drawn)	8	-16	0.6	1	2	-2	-3	0.0	?	i
COC(=O)CCN(C(=O)C12CC3CC(CC(C3)C1)C2)c1ccccn1	-13	1	·	-4	2	·	·	·	5.3	·
COc1ccc(CNS(=O)(=O)c2cc(OCC(N)=O)c(C)cc2Cl)cc1	-12	2	·	-4	-1	·	·	·	-0.3	·
COc1ccc(CC(=O)c2c(O)cc(O)cc2O)cc1OC	-2	-4	1.9	19	-1	·	·	·	-1.2	·
CS(=O)(=O)c1ccccc1C(=O)Nc1ccc2sccc2c1	-5	2	0.0	-3	1	2	7	-1.7	2.6	i
CCCN1C2CCCC1CC(NC(=S)Nc1cccc(C)c1)C2 (stereo not drawn)	-14	-9	0.0	-6	0	10	9	1.7	6.6	i
O=C1CCCN1CCCNC(=S)Nc1ccc(Nc2ccccc2)cc1	-9	8	8.1	99*	-3	0	-5	8.4	3.0	i
O=C(CCc1nc(-c2ccccc2)c(-c2ccccc2)o1)OCc1ccc(Cl)cc1	-10	-21	·	-18	-9	·	·	·	0.5	·
CC(C)(C)c1ccc(/C=N/N2CCN(c3ccccn3)CC2)cc1	-3	-8	·	-8	-9	7	11	-0.9	1.3	i
Cc1cccc(-n2ncc3c2CCCC3NC(=O)CN2CCCC2=O)c1C (stereo not drawn)	-17	-14	0.1	5	6	5	7	-2.1	5.6	i
O=C(CNC(=O)c1ccc(Cl)cc1Cl)OCCCn1c(=O)[nH]c2ccccc21	-2	4	0.2	4	0	-10	-8	-1.6	1.4	i
CCn1c(SCC(=O)Nc2ccc(C)cc2)nc(O)cc1=O	-7	29	-2.5	99*	-2	2	0	5.2	2.2	i
COc1ccc(Nc2nc3ccccc3nc2NS(=O)(=O)c2cccs2)c(OC)c1	-13	-1	-21	14	18	-3	3	-5.1	9.9	i

Remaining list, next part:
SMILES	T cruzi inh	Calb FLC	MLL AF4-AF9 inh	ALR inh	Beta cell apopt	rRNA inh HTS	rRNA inh HTS OD600	rRNA inh HTS RFP	RanGTP-Impb inh	FGF22 binding
CC(C)Sc1nc(N2CCOCC2)c2c(c1C#N)CC(C)(C)N(C)C2	25	4	·	-11	·	·	·	·	27*	·
C/C(CC(=O)Nc1cccc(C(F)(F)F)c1)=N/NC(=O)C(=O)NCCO	-4	5	·	25	2	-2	-1	0.6	0.2	i
C=CCOC(=O)C1=C(C)OC(N)=C(C#N)C1c1ccc(F)cc1 (stereo not drawn)	-5	6	·	15	0	·	·	·	0.2	·
Cc1ccc(S(=O)(=O)N(CC(=O)N=Nc2c(O)[nH]c3ccccc23)c2cccc(C)c2)cc1	29	-7	·	-13	-1	·	·	·	1.1	·
O=C(CNS(=O)(=O)c1ccc(C(=O)N2CCOCC2)cc1)N1CCOCC1	-16	-6	·	-12	2	·	·	·	-1.9	·
CCC1(c2ccccc2)C(=O)NCNC1=O	-11	·	1.4	-14	-9	·	·	·	-0.1	i
COc1ccccc1CN1C(=O)c2cccc3cccc(c23)C1=O	19	-19	·	·	0	·	·	·	0.0	·
Cc1ccc(NC(=O)CSCC(=O)Nc2ccccc2N2CCCCC2)cc1	11	-1	-4.8	-3	-3	-10	-9	-0.1	-1.6	i
Cc1nn(CCCC(=O)Nc2cccnc2Cl)c(C)c1[N+](=O)[O-]	-16	5	2.9	-3	-1	7	13	-4.3	2.6	i
COc1ccc(-n2nc(C(=O)NCC(=O)N3CCN(c4cccc(Cl)c4)CC3)c3ccccc3c2=O)c(OC)c1	12	45	-1.1	-2	9	16	16	2.7	-2.5	i
CC(C)(C)NC(=O)NC(=O)COC(=O)c1ccc(OC(F)F)cc1	4	-1	·	-4	-8	·	·	·	0.0	·
